AID504770 – E. coli YBA685 growth inhibition, screen for V. cholerae RctB inhibitors; E. coli YBA685 rctB-dependent plasmid, OD600 growth, 3 h; stronger effect = lower value; z-score (no concentration beside the values); 130,000 compounds, 0.27% hits; AID 504770;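 active = z-score under -2 on both plates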;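 also: wells of about 30 µL received 100 nL stock; score is relative to mean and SD of the test wells; the first replicate is given; strong numbers were not always called active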
Ba CapD inh – CapD enzyme inhibition; 140,000 compounds, 0.23% hits; purified CapD enzyme, fluorescence intensity read-out; stronger effect = lower value; some hits fall short of the stated cut; AID 492967; z-score (concentration not given with the values);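 active = z-score under -4 in either of two replicates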;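 also: stock transfer was 100 nL into about 40 µL; score is relative to mean and spread of the plate; one replicate is shown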
* marks the source's active call; other numbers are inactive results; i = inactive; . = no result given.

mol	AID504770	Ba CapD inh
O=C(Nc1nnc(-c2ccccc2)s1)c1cccc(C(F)(F)F)c1	0.1	i
Cc1cccc(C)c1NC(=O)C(Cc1c[nH]c2ccccc12)NC(=O)OCc1ccccc1 (configuration not stated)	.	-0.28
Cc1ccccc1OCCNC(=O)c1ccco1	-0.85	0.15
Cc1cc(C(=O)COC(=O)c2ccc(S(=O)(=O)N3CCCC3)cc2)c(C)n1Cc1cccs1	1.3	.
COc1c(/C=C2/SC(=Nc3ccccc3)NC2=O)cccc1[N+](=O)[O-]	.	-0.44
COc1cccc(/C=C2\N=C(SC)SC2=O)c1	0.25	-0.04
CN(C)CCCOc1ccc(/C=N/NC(=O)c2ccc(C(F)(F)F)cc2)cc1	.	-1.3
CC(=O)Nc1cc2cc([N+](=O)[O-])ccc2oc1=O	.	0.57
O/N=C1\CCCc2nnc3c(c21)CCCC3	-0.15	.
CCOc1ccc(CO)cc1OCC	-0.1	.
CCN(CC)S(=O)(=O)c1ccc(N2CCc3ccccc32)nc1	2.2	.
NCCCc1nc2ccc(Cc3ccc4nc(CCCN)[nH]c4c3)cc2[nH]1	0.6	-0.035
Cc1nnc(SCC(=O)c2cc(C)n(C(C)c3ccccc3)c2C)n(N)c1=O (configuration not stated)	0.2	.
CC(C)OCC(O)CNc1ccccc1 (configuration not stated)	-1	2.1
NC(CCc1ccccc1Cl)c1ccc2c(c1)OCCO2 (configuration not stated)	-0.6	-0.79
O=C(NCc1ccccc1)c1cn(-c2ccccc2)nc1-c1cccs1	0.4	.
O=c1c2ccccc2nnn1CN1CCN(S(=O)(=O)/C=C/c2ccccc2)CC1	0.1	.
CCCCCCCCCOc1ccc(-c2ncc(CCCCCCCCC)cn2)cc1	.	-0.33
O=C(COC(=O)c1cccc(S(=O)(=O)N2CCCCC2)c1)NCc1ccccc1	-0.35	.
O=C(OCc1cc(C(F)(F)F)ccc1F)N1CCN(Cc2ccccc2OCc2ccccc2)CC1	.	0.13
COC(=O)COc1nc(C)nc2c1sc1nc(C)cc(C)c12	0.35	1.1
Cc1noc(C)c1CSCC(=O)OCc1cc(=O)n2c(n1)sc1ccccc12	0.1	.
c1ccc(CNc2nc3ccccc3n3nnnc23)cc1	-1	15
CCN1CCN(c2cc(C)c3ccc(OC)cc3n2)CC1	-0.45	66
C=CCn1c(=N)n(CC(O)c2cccc(Br)c2)c2ccccc21 (configuration not stated)	-0.9	-0.25
N#CCCn1cc(/C=C/C(=O)N2CCC(c3nc4ccccc4s3)CC2)c2ccccc21	0.25	.
CCOC(=O)c1sc2ccccc2c1Cl	0.4	0.77
O=C(NCCCSc1ccccc1)Nc1ccccc1	0.05	.
COCC(=O)N1CCC(n2nnc3cc(F)ccc32)CC1	-0.55	.
CCc1ccc(N2C(=O)C3CCCN3C2=S)cc1 (configuration not stated)	1	-0.46

Entries of single compounds from above:
Cc1noc(C)c1CSCC(=O)OCc1cc(=O)n2c(n1)sc1ccccc12 as listed: AID504770 = 0.1; Ba CapD inh = .
COc1c(/C=C2/SC(=Nc3ccccc3)NC2=O)cccc1[N+](=O)[O-] as listed: AID504770 = .; Ba CapD inh = -0.44

The listing continues.
mol	AID504770	Ba CapD inh
O=C1CCC2(C(=O)O)SCCN12 (configuration not stated)	-0.05	.
Cn1nc(-c2ccc(Cl)cc2)c2ccccc21	-0.55	14
O=C(CN1CCN(C/C=C/c2ccccc2)CC1)Nc1ccccc1C(=O)NC1CC1	-0.2	.
CCOC(=O)c1cc2c(c(CSc3nc4ccccc4c(=O)n3CCN3CCOCC3)c1)OCOC2	-0.3	.
N#CCC1Nc2ccccc2S(=O)(=O)N1 (configuration not stated)	1.8	-0.31
CC(=O)N1N=C(CC#N)OC1(C)CC(=O)Nc1ccccc1 (configuration not stated)	-0.05	.
CCn1nc(C)cc1C(=O)OCC(=O)c1ccc(Cl)cc1	0.45	-1.8
CCOC(=O)Cn1nc(NC(=O)COc2ccc(F)cc2)cc1C	-0.75	0.085
O=C(c1cccs1)N1N=C2c3ccccc3CCC2C1c1ccccc1Cl (configuration not stated)	-0.2	-0.22
O=C1CCCC2=C1C(c1ccc(Cl)cc1)Nc1ccccc1N2 (configuration not stated)	0.65	-2.6
CC1=C(C(=O)OC2CCCC2)C(c2cc3c(cc2Br)OCO3)NC(=O)N1C (configuration not stated)	.	-0.11
COc1ccc(-c2cc(-c3ccccc3)c(C#N)c(SCCS(=O)Cc3ccccc3)n2)cc1 (configuration not stated)	0.3	-0.58
CCCC(=O)Nc1ccc(C(=O)CSc2nnc(Cc3ccccc3)o2)cc1	0.15	.
O=S(=O)(NCc1ccccn1)c1cc(OCC(F)(F)F)ccc1OCC(F)(F)F	.	0.17
CN(C(=O)c1ccccc1)c1ccccc1	2.4	5.7
O=C(Nc1cccc(Cl)c1)C1CCN(c2ccc(C(F)(F)F)cn2)CC1	-1.1	3.9
CC(C)(C)OC(=O)N1CCC[C@H]1C(=O)OCc1cc(=O)n2cc(Br)ccc2n1	1.1	.
CCCNC(=O)NCc1n[nH]c(=O)c2ccccc12	2.3	.
Cc1oc2cc(OCC(=O)O)ccc2c(=O)c1-c1ccc2c(c1)OCCO2	0.55	0.05
CCCCc1c(-c2ccccc2)nc(N)c(C#N)c1-c1ccc(O)c(OC)c1	-0.25	23
N#Cc1ccc(NC(=O)COC(=O)CN2CSCC2=O)cc1	-0.95	.
CCc1ccc(/C=C2\SC(=S)N(CCCC(=O)Nc3cccnc3)C2=O)cc1	-0.55	0.24
Cn1c(SCc2cc(=O)[nH]c(=O)[nH]2)nnc1C(F)(F)F	-0.15	0.77
COc1ccc(CCNC(=O)COc2cc(=O)n(C)c3ccccc23)cc1OC	1.5	-0.025
O=C(NC1(C(F)(F)F)NC(=O)N(c2ccc(F)cc2)C1=O)c1ccco1 (configuration not stated)	-0.2	-0.86
CCCCN(Cc1ccco1)C1=NC(Cc2ccccc2)C(=O)N1c1ccc(C)cc1C (configuration not stated)	-0.45	5.7
CCOC(=O)c1c(NC(=O)CSc2nnc(CNC(=O)Cc3ccccc3)n2Cc2ccccc2)sc2c1CCC2	.	-0.73
Cc1ccc2oc(-c3ccc(N(C)C)cc3)cc(=O)c2c1	-0.5	.
O=C(CSCC(=O)Nc1ccc2nc(SCC(=O)Nc3ccccc3)sc2c1)Nc1ccccc1	.	-0.46
CCOC(=O)C1=C(C)N=c2s/c(=C\c3cc([N+](=O)[O-])ccc3N3CCOCC3)c(=O)n2C1c1cccs1 (configuration not stated)	.	0.21

Further records follow:
mol	AID504770	Ba CapD inh
CC(O)c1ccccc1-c1ccccc1C(C)O (configuration not stated)	-0.25	-0.04
COc1cc(CNC(C)(C)C)ccc1OCC(=O)NC(C)(C)C	0.05	-0.38
CN(C)c1ccc(C(=C2C=CC(=[N+](C)C)C=C2)c2ccc(N(C)C)cc2)cc1	5.7	1
CCN(CC)C(=O)Sc1cccc2cccnc12	-0.55	-0.9
O=S(=O)(c1cccc(Cl)c1Cl)N1CCN(c2c(Cl)cncc2Cl)CC1	.	-1.4
OC(CN(C1CCCCC1)C1CCCCC1)Cn1c2ccccc2c2ccccc21 (configuration not stated)	.	0.14
c1ccc(-n2ncc3c(SCCC4OCCO4)ncnc32)cc1	1.1	.
CCOC(=O)c1ccc(NC(=O)c2ccc[n+]([O-])c2)cc1	0.05	-0.09
CN1C(=O)CSC1=Nc1cccc(C(=O)O)c1	0.6	.
Cc1nc2sc3c(c2c(=O)n1N)CCCC3	0.35	.
CC(Sc1nnc(-c2cccs2)n1C1CC1)C(=O)NCC1CCCO1 (configuration not stated)	-0.6	.
CCCS(=O)(=O)c1c(S(=O)(=O)CCC)c2c3ccccc3ccn2c1C(=O)N/N=C/c1ccc(OC)c(OC)c1	.	-0.43
Cc1[nH]c(C(=O)N2CCCCC2)c(C)c1C(=O)NC1CCCCC1	0.85	0.12
N#Cc1nc(COc2ccc(Cl)cc2)oc1NCCc1ccccc1	-1.2	0.21
O=C(O)c1ccccc1C(=O)NC1CCCCNC1=O (configuration not stated)	0.15	-0.005
CCc1ccccc1N1C(=O)NC(=O)/C(=C\c2ccc(N(CC)CC)o2)C1=O	-0.75	-1.6
CC(=O)Nc1ccc(NC(=O)C(NC(=O)C2CCCCC2)C(C)C)cc1 (configuration not stated)	-0.15	0.065
CCc1nnc(NC(=O)COC(=O)CN2C(=O)c3ccccc3C2=O)s1	0	0.36
CCN(CC)Cc1cccc2c1COC2	0.3	-0.32
CCOC(=O)c1[nH]c2ccc(OC)cc2c1NC(=S)N1CCOCC1	-0.25	-0.88
CCN=C1NN=C(c2c[nH]c3ccccc23)CS1	-0.55	.
CC(=O)Nc1ccc(C2N3CCCN23)cc1 (configuration not stated)	-0.1	0.27
COc1cc(F)nc(N)n1	0.25	-0.31
CCOC(=O)C1=C(CN2C(=O)c3ccccc3S2(=O)=O)NC(=O)NC1c1ccc(OC)cc1 (configuration not stated)	-0.5	.
O=S1(=O)CCC(S(=O)(=O)N2CCCCC2)C1 (configuration not stated)	-0.05	-0.14
O=C(NC(/C=C/c1ccccc1)c1cc(Cl)c2cccnc2c1O)c1cccnc1 (configuration not stated)	.	-0.085
CC1(C)CC(=NO)CC(C)(C)N1	-0.65	-0.16
CS(=O)(=O)c1ccc(CNC(=O)c2cccc3cc[nH]c23)cc1	.	1.4
CCCCCCOc1cccc(-n2c(-c3ccc(Cl)cc3)cn3c4c(=O)n(C)c(=O)n(C)c4nc23)c1	.	-0.21
COc1ccc(CC(C)=C(C#N)C#N)cc1OC	.	0.095

Look-ups from the results shown.
For Ba CapD inh, `O=C(NC(/C=C/c1ccccc1)c1cc(Cl)c2cccnc2c1O)c1cccnc1` (configuration not stated) is entered as -0.085
For Ba CapD inh, `CCN(CC)C(=O)Sc1cccc2cccnc12` is entered as -0.9
For AID504770, `CC(=O)Nc1ccc(NC(=O)C(NC(=O)C2CCCCC2)C(C)C)cc1` (configuration not stated) is entered as -0.15

(more compounds)
mol	AID504770	Ba CapD inh
CNC(=O)c1cccc(NC(=O)C2=CSCCO2)c1	0.25	-0.22
COC(=O)CON1C(=O)CN(C(C)=O)C1c1ccc(Cl)cc1Cl (configuration not stated)	.	0.73
COc1cc(C(=O)NCCC(=O)NC2CCCCC2)cc(OC)c1OC	-0.35	0.68
O=C(CCn1c(=O)sc2ccccc21)NC1=NCCS1	-0.4	1.1
N#C/C(=C\c1cc(Cl)sc1Cl)S(=O)(=O)c1ccccc1	-0.25	0.59
Cc1cccc(S(=O)Cc2ccc(C(=O)NC3CCCC3)o2)c1 (configuration not stated)	-0.05	-0.16
CO[C@@H]1[C@@H](OC(N)=O)[C@@H](O)[C@H](Oc2ccc3c(O)c(NC(=O)c4ccc(O)c(CC=C(C)C)c4)c(=O)oc3c2C)OC1(C)C	0.3	-0.05
CCCN1CC=C2C(C#N)=C(N)C(C#N)(C#N)C(c3cccc(OC)c3OC)C2C1 (configuration not stated)	.	3.5
COc1ccc(C2CC(=O)Nc3cc4c(cc32)OCO4)cc1 (configuration not stated)	-0.85	-0.17
Cc1ccc(C)n1-c1ccc(Oc2ccc(Br)cc2)cc1	-0.05	-0.86
Oc1ccccc1-c1nnc2n1CCCCC2	-0.7	.
COc1cc(OC)nc(-c2cccc(N)c2)n1	.	18
CC(=O)NC(C(=O)c1ccccc1)N1CCCCC1 (configuration not stated)	0.45	.
O=C(O)CCCSc1nccn1-c1ccccc1	-0.85	0.23
CN1CCN(S(=O)(=O)c2ccc(Br)c3ccccc23)CC1	-0.35	.
CSc1ccc(C2C3=C(CCCC3=O)Nc3ccc4ccccc4c32)cc1 (configuration not stated)	1.4	43
Cc1sc2ncn(CC(=O)NCc3ccccn3)c(=O)c2c1S(=O)(=O)N1CC(C)CC(C)C1 (configuration not stated)	0.1	-0.18
Cc1ccc(Oc2ccc(OCC(=O)NCc3ccco3)cc2)cc1	-0.2	-0.14
c1ccc(CN2CCN(c3ncnc4scc(-c5ccccc5)c34)CC2)cc1	.	-0.35
COc1ccc(/C=c2/sc3nc(-c4ccc(Cl)cc4)nn3c2=O)c(OC)c1	.	-0.31
O=C1/C(=C\c2ccco2)SC(=S)N1CCC(=O)N1CCCc2ccccc21	-0.35	.
Cc1ccccc1C(=O)Nc1nnc(C2=COCCO2)o1	-1.2	.
O=C1COc2ccc(C(=O)c3ccccc3C(=O)NCc3ccco3)cc2N1	.	-0.31
COc1ccc(NC(=O)CSc2nnc(CNc3ccc(C)cc3C)o2)c(OC)c1	1	.
Cc1nc(-c2coc3cc(OCC(=O)O)ccc3c2=O)cs1	0.05	0.28
CN1CCN(NC(=O)c2ccccc2CCc2ccccc2)CC1	0.15	-0.075
CC(C)(C)OC(=O)N1CCC(CNS(=O)(=O)c2cc(Cl)sc2Cl)CC1	0.4	-0.52
O=C(NCCC(=O)N1CCN(c2ccc(F)cc2)CC1)c1ccco1	0	.
Nc1nc(F)cc(NCCO)n1	.	-0.52

A different layout for part of the listing above:
smiles: CN1CCN(S(=O)(=O)c2ccc(Br)c3ccccc23)CC1
  AID504770: -0.35	Ba CapD inh: .
smiles: COC(=O)CON1C(=O)CN(C(C)=O)C1c1ccc(Cl)cc1Cl (configuration not stated)
  AID504770: .	Ba CapD inh: 0.73
smiles: Oc1ccccc1-c1nnc2n1CCCCC2
  AID504770: -0.7	Ba CapD inh: .
smiles: Cc1ccc(C)n1-c1ccc(Oc2ccc(Br)cc2)cc1
  AID504770: -0.05	Ba CapD inh: -0.86

Assay outcomes as filed in PubChem BioAssay.
